Screens: PubChem, National Center for Advancing Translational Sciences (NCATS)
RE007 growth inh: less growth of the S. pombe RE007 Vpr strain; AID 651644; Potency, µM (titrated, usually from 92.2 µM), for inactives: at the top dose activity change, negative = less growth; S. pombe RE007 Vpr strain, BacTiter-Glo ATP luminescence, 24 h; control for the full effect not named in the record; 360,000 tested, 0.21% active; active = well fitted falling curve with a large enough effect; inconclusive = small, poorly fitted or top-dose-only effect; inactive = no such curve, though single readings can be large or run the other way;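 note: % is set by controls: 0 for no effect and ±100 for the full control effect; nearly all actives have a fitted effect of over 50% in size; the assay follows cell death caused by Vpr and the record does not say whether a fall means rescue or toxicity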
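Fission yeast RE007 carrying one integrated HIV-1 vpr copy, seeded at OD 0.01 in PMG+AL medium with 23 nL pinned compound. Grown 24 h at 30 degrees; viability read by BacTiter-Glo luminescence after 5 min.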
NS1 inh: inhibitors of influenza NS1 protein function. S. cerevisiae slowed by influenza A NS1, growth recovery by OD600. Potency, µM (highest dose often 46.1 µM), for the others: top-dose activity, positive = more growth. 270,000 tested, 0.4% active. AID 2326; note: actives are rising curves; nearly all actives have a fitted effect of over 50% in size
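S. cerevisiae expressing influenza A NS1, grown in glucose, washed, then diluted 1:100 into pH 6.0 -URA galactose medium with 23 nl compound. Growth recovery read as OD600; NS1-free strain serves as control.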
MARV entry inh: blocks Marburg virus binding to or entry into cells | 300,000 tested, 1.8% active | Marburg virus pseudotyped entry inhibition, cell reporter; control for the full effect not named in the record; about a third of the inactives were read at about 46 µM | Potency, µM (highest dose often 37.8 µM), for inactives: at the top dose activity change, negative = inhibition, most hits filed as inhibitors; active = well fitted inhibition curve with a large enough effect; inconclusive = small, poorly fitted or top-dose-only effect, or effect the other way; inactive = flat fitted curve, though single readings scatter; tested in HEK293 cells; about a fifth of its hits are not listed in these tables; note: % is set by controls: 0 for no effect and ±100 for the full control effect; luciferase read-out
Cruzain noTriton: inhibitors of Trypanosoma cruzi cruzain without detergent; P25779; AID 1476; purified cruzain, Z-FR-AMC fluorescence, no detergent; Potency, µM, inactives show max response, negative = inhibition, most hits filed as inhibitors; 200,000 tested, 2.3% active; active = well fitted curve in the direction sought with a large enough effect; inconclusive = small, poorly fitted or top-dose-only effect, or another doubt; inactive = no such curve, though single readings can be large; an effect the other way counts as inactive or inconclusive;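 note: plate controls were enzyme without inhibitor for no effect and buffer without enzyme for full effect; nearly all actives have a fitted effect of over 40% in size; top concentration of the series not given in the record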
Target sequence (P25779 123-467 limits assumed): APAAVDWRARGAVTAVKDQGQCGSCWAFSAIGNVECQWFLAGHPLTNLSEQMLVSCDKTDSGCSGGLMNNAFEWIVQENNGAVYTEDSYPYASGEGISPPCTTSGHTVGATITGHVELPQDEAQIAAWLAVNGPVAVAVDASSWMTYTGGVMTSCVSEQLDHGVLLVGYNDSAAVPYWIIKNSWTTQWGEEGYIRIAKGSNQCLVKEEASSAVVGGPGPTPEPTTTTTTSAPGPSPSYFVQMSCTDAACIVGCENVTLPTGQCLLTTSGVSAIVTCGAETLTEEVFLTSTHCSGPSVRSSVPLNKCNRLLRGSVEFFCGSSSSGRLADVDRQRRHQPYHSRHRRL
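Detergent-free condition (0.00005% Triton X-100) in acetate buffer pH 5.5 with DTT. 1.5 nM enzyme and compound were pre-mixed 15 min, then 2 uM Z-FR-AMC substrate added; reaction progress from fluorescence change between first and third reads (60 s).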
Cruzain inh Det: inhibitors of Trypanosoma cruzi cruzain with detergent. P25779. purified cruzain, Z-FR-AMC fluorescence, 0.01% Triton. Potency, µM, for the others: max response, negative = inhibition, hits mostly inhibitors. 200,000 tested, 0.43% active; active = well fitted curve in the direction sought with a large enough effect; inconclusive = small, poorly fitted or top-dose-only effect, or another doubt; inactive = no such curve, though single readings can be large; an effect the other way counts as inactive or inconclusive;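 note: plate controls were neutral wells for no effect and buffer without enzyme for full effect; nearly all actives have a fitted effect of over 40% in size; top concentration of the series not given in the record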
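15 min RT preincubation of 1.5 nM cruzain with compound, then 2 uM Z-FR-AMC added; kinetic AMC fluorescence, 60 s delta. Triton X-100 0.01%, pH 5.5.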
Lassa entry inh: blocks Lassa virus binding to or entry into cells; Lassa virus pseudotype entry inhibition, cell reporter; control for the full effect not named in the record; Potency, µM (titrated, usually from 37.9 µM), for the others: at the top dose activity change, negative = inhibition, actives largely listed as inhibitors; 300,000 tested, 1.2% active; AID 540256; active means well fitted inhibition curve with a large enough effect; inconclusive means small, poorly fitted or top-dose-only effect, or effect the other way; inactive means flat fitted curve, though single readings scatter; tested in HEK293 cells; note: % is set by controls: 0 for no effect and ±100 for the full control effect; nearly all actives have a fitted effect of over 50% in size; luciferase read-out
StopGo reporter: FMDV 2A StopGo reporter, luciferase signal | human cells with a luciferase reporter of 2A StopGo recoding; control for the full effect not named in the record | Potency, µM (top dose mostly 57.9 µM), inactives show top-dose signal change, negative = less light | 410,000 tested, 1.2% active | AID 1159524; active = well fitted falling curve with a large enough effect; inconclusive = small, poorly fitted or top-dose-only effect; inactive = no such curve, though single readings can be large or run the other way; tested in HEK293T cells; note: % is set by controls: 0 for no effect and ±100 for the full control effect; nearly all actives have a fitted effect of over 45% in size; luciferase light after 4 h
SARS PLP yeast: SARS-CoV PLP inhibition in yeast. S. cerevisiae expressing SARS-CoV PLpro, growth rescue; control for the full effect not named in the record. Potency, µM (highest dose often 32.9 µM), for inactives: at the top dose activity, positive = growth rescue. 330,000 tested, 0.19% active. AID 485353; note: 0% is about no effect; nearly all actives have a fitted effect of over 55% in size; growth read by luminescence after 48 h
Active calls of the source: *; u = inconclusive; x = not tested or not shown; & = joins results of further samples; [ ] = dose if it differs, or a comment. Unless noted, calls come from the whole dose curve; as a rule, active means well fitted rising curve with a large enough effect; inconclusive means small, poorly fitted or top-dose-only effect; inactive means no such curve, though single readings can be large or run the other way. Potency is the fitted concentration of half-maximal effect.

The line under a structure holds: RE007 growth inh, NS1 inh, MARV entry inh, Cruzain noTriton, Cruzain inh Det, Lassa entry inh, StopGo reporter, SARS PLP yeast
> CCCn1c(N)c(C(=O)CSc2nnc(-c3cccs3)n2C2CC2)c(=O)[nH]c1=O
    -15%, x, u, x, x, 15%, -8%, -2%
> O=C(CCCl)N1CCN(c2nc(-c3ccccc3)cs2)CC1
    u, 23%, x, x, x, x, 0%, -1%
> COc1cc(C2c3c(-c4ccccc4O)n[nH]c3C(=O)N2Cc2ccco2)cc(OC)c1OC (stereo unspecified)
    2%, -2%, x, x, x, x, -12%, -2%
> CCOc1ccc(NC(=O)CN2CCN(CC(=O)Nc3ccccc3OC)CC2)cc1
    -12%, -4%, x, x, x, x, -13%, -1%
> O=C(/C=C/c1cccc2ccccc12)c1ccncc1
    x, -34%, u, u, -5.2%, u, 14µM*, -90%
> CCOc1ccc(S(=O)(=O)/N=C(/c2ccccc2)N(C)C)cc1
    -6%, 1%, x, x, x, x, 33%[activator], 0%
> COCCNC(=O)c1ccc2c(c1)ncn2-c1cccc(C)c1
    1%, 1%, x, x, x, x, 30%, -1%
> CS(=O)(=O)Nc1ccc(C2=NN(C(=O)c3ccccc3)C(c3cccs3)C2)cc1 (stereo unspecified)
    3%, 3%, x, x, x, x, 0%, 0%
> CC1(C)CC(=O)/C(=N/Nc2ccc(Cl)cc2)CO1
    -5%, -7%, x, x, x, x, 13%, 0%
> CCOC(=O)C1CCCN(C(=O)c2cc3ccc(OC)cc3[nH]2)C1 (stereo unspecified)
    2%, -7%, 10%, x, x, u, 51%[activator], -2%
> COc1ccc(NC(=O)c2nc[nH]c2C(=O)NCC(=O)OC(C)(C)C)cc1
    -8%, -47%, x, x, x, x, -17%, 0%
> CC(=O)Nc1nnc(SCC(=O)Nc2nc(C)cs2)s1
    1%, 8%, -3%, x, x, -2%, -16%, -11%
> O=C(Nc1ncn[nH]1)c1ccc(Cl)c(S(=O)(=O)N2CCCCCC2)c1
    5%, 1%, 13%, u, 3.1%, -14%, 0%, 6%
> Cc1c(CCC(=O)NCC(=O)NCC(=O)O)c(=O)oc2cc3oc4c(c3cc12)CCCC4
    -11%, 8%, u, x, x, 29%[46.1 µM], -10%, 1%
> N#CC1=C(SCC(=O)Nc2cccc3cccnc23)NC(=O)C(C#N)C12CCCCC2 (stereo unspecified)
    -7%, u, 3%, u, -0.9%, 21%, -10%, -4%
> O=C(Nc1ccccc1)C1=C[C@H](C2CC2)C[C@H](OCCCCO)O1
    -1%, -1%, x, x, x, x, 54%[activator], 0%
> CC(=O)c1ccc(OCc2cc(C(=O)N3CCN(C4CCCC4)C(=O)C3)no2)cc1
    1%, x, 3%, x, x, 3.2µM*, 32%[activator], x
> CCCC(C(=O)NNC(=O)c1ccncc1)c1ccccc1 (stereo unspecified)
    -2%, x, 0%[46.1 µM], x, x, 30%[46.1 µM], -1%, 20%
> CCOc1ccc(S(=O)(=O)Nc2ccccc2C(=O)N/N=C/c2c(OC)ccc3ccccc23)cc1
    -14%, u, 16%, -5%, -5.2%, 1%, 0%, 21%
> CCOc1ccc(NC(=O)CN(c2cccc(C(F)(F)F)c2)S(C)(=O)=O)cc1
    20%, 6%, u, 14%, -9.0%, 1%, -3%, 2%
> CCc1nn2c(=O)cc(COC(=O)C(c3ccccc3)c3ccccc3)nc2s1
    x, x, x, u, -8.2%, u, -29%, x
> Oc1ccccc1/C=N/N1CCN(c2ccccn2)CC1
    -13%, 3%, u, x, x, 2%[46.1 µM], 5%, -1%
> CC(=O)Nc1ccc(CN2CCN(c3cccc(C(F)(F)F)c3)CC2)cc1
    -9%, -73%, -4%, -11%, 4.0%, -7%, -7%, 3%
> O=S(=O)(c1ccccc1)N1CCC(n2nnc3cc(F)ccc32)CC1
    13%, 5%, -19%, 16%, -9.3%, 2%, x, 2%
> CC(CCc1ccccn1)C(=O)C(C)CCc1ccccn1 (stereo unspecified)
    -13%, x, u, x, x, 11%, -14%, x
> CCN(CC)c1ccc(C=C2C(=O)NC(=S)NC2=O)cc1
    8%, 1%, x, x, x, x, 22µM*, 2%
> COc1ccccc1-c1cc(-c2ccc(C)cc2)nc(SCc2nnc(-c3ccccc3)o2)c1C#N
    5%, -9%, u, 4µM*, -0.1%, -26%, 15%, 0%
> Cc1cc(/N=C/C=C2/N(C)c3ccccc3C2(C)C)n(CCC#N)n1
    24%, x, u, x, x, u, 7%, x
> CSc1nn2c(C)c(C)c(C)nc2c1C#N
    2%, x, 18%[46.1 µM], x, x, 3%, 19%, 0%
> CCOc1ccc(C(=O)NC(C(=O)N2CCC2)C(C)C)cc1 (stereo unspecified)
    -2%, x, 14%, x, x, 9%, -6%, -2%
> CC(O)(c1ccccc1)c1ccc2ccccc2n1 (stereo unspecified)
    2%, x, 8%, x, x, 23%, 0%, x
> Cc1cc(C=C(C#N)C#N)ccc1N1CCCC1
    -1%, -4%, u, x, x, -10%, -6%, -1%
> CN(C)c1ccc(C(CNC(=O)c2ccc(C(C)(C)C)cc2)N2CCOCC2)cc1 (stereo unspecified)
    x, x, x, u, 1.2%, u, -8%, x
> CO/N=C(/CNC(=O)c1ccc(F)cc1)c1ccc(Cl)cc1
    6%, -23%, -3%, -1%, 1.9%, 8%, 0%, 2%
> COc1ccc(-c2cc3ncc(C(C)=O)c(C)n3n2)cc1
    -4%, -2%, x, x, x, x, 77%[activator], 1%
> CCOc1ccc(N(C)S(=O)(=O)c2ccc3c(c2)C(C)(C)C(=O)N3C)cc1
    x, x, x, -1%, -1.4%, -23%[46.1 µM], u, x
> Cc1ccccc1/C(N)=N/OC(=O)c1cccs1
    -20%, -48%, 17%, 4%, -0.4%, -20%, 13%, -77%
> Cc1nc([N+](=O)[O-])cn1CC(=O)NCCCO
    8%, 5%, 4%, 10%, -2.5%, 9%, -12%, 6%
> O=C(CNC(=O)[C@@H]1Cc2ccccc2CN1)Nc1ccc2c(c1)OCO2
    3%, -20%, x, x, x, x, 5%, -1%
> CCOc1ccc(NC(=O)Cn2nnc(C(=O)Nc3ccc(OCC)cc3)c2N)cc1
    x, x, -5%[46.1 µM], -15%, -5.8%, -9%[46.1 µM], 31%[activator], x
> COC(=O)Cc1c(O)ccn(C2CC2)c1=O
    -17%, 4%, 6%[46.1 µM], x, x, 15%, 8%, -1%
> COc1ccccc1NC(=O)CCCOc1cc(=O)n(C)c2ccccc12
    x, x, 0%[46.1 µM], 1%, 1.9%, -1%[46.1 µM], -13%, x
> CCCNC(=O)c1ccc(CNc2c(N3CCC(C(=O)OCC)CC3)c(=O)c2=O)cc1
    0%, 6%, 18%[46.1 µM], 19%, -3.7%, 8%, -19%, 4%
> Cc1ccc2c(CC(=O)Nc3sccc3C(N)=O)coc2c1
    4%, -50%, 13%, -28%, -7.5%, u, 45%[activator], -17%
> Cc1ccc(-c2ccc(CCC(=O)O)n2NC(=O)c2cccs2)cc1
    1%, u, u, -3%, 2.2%, 17%, 9%, 6%

Some of the entries so far, as labelled records:
CCOc1ccc(S(=O)(=O)/N=C(/c2ccccc2)N(C)C)cc1
  RE007 growth inh: -6%
  NS1 inh: 1%
  MARV entry inh: x
  Cruzain noTriton: x
  Cruzain inh Det: x
  Lassa entry inh: x
  StopGo reporter: 33%[activator]
  SARS PLP yeast: 0%
CC(CCc1ccccn1)C(=O)C(C)CCc1ccccn1 (stereo unspecified)
  RE007 growth inh: -13%
  NS1 inh: x
  MARV entry inh: u
  Cruzain noTriton: x
  Cruzain inh Det: x
  Lassa entry inh: 11%
  StopGo reporter: -14%
  SARS PLP yeast: x
CC(=O)Nc1nnc(SCC(=O)Nc2nc(C)cs2)s1
  RE007 growth inh: 1%
  NS1 inh: 8%
  MARV entry inh: -3%
  Cruzain noTriton: x
  Cruzain inh Det: x
  Lassa entry inh: -2%
  StopGo reporter: -16%
  SARS PLP yeast: -11%

Following part.
The line under a structure holds: RE007 growth inh, NS1 inh, MARV entry inh, Cruzain noTriton, Cruzain inh Det, Lassa entry inh, StopGo reporter, SARS PLP yeast
> CCc1cccc(N2C(=O)CSC23C(=O)Nc2ccccc23)c1 (stereo unspecified)
    x, x, x, 6%, -1.0%, 15%[46.1 µM], -24%, x
> CN(C)/N=C/c1ccc(N2CCOCC2)cc1
    -2%, x, u, x, x, -9%[46.1 µM], 13%, 0%
> O=C(O)Cc1ccc(NC(=O)c2ccc3c(c2)C(=O)N(CC2CCCO2)C3=O)cc1 (stereo unspecified)
    -11%, 0%, 10%, x, x, -16%, -18%, -3%
> COCCN(C(=O)COC(=O)/C=C/c1ccco1)c1c(N)n(Cc2ccccc2)c(=O)[nH]c1=O
    -4%, 1%, 0%&0%, x, x, -5%, -19%, 2%
> Cc1ccc(O)c(NC(=S)NC(=O)/C=C/c2ccccc2)c1
    6%, -11%, x, x, x, x, -3%, -2%
> Cc1cc(C)n2nc(SCC(=O)N3CCc4ccccc43)nc2n1
    4%, 19%, -12%, -5%, 4.0%, 15%, 19%, 3%
> O=C(COC(=O)c1ccc(Cl)c(S(=O)(=O)N2CCCC2)c1)NC1CCCCC1
    -12%, x, 25%[46.1 µM], x, x, 7%, -20%, -2%
> CCN1CCN(C(=O)c2ccc(Cl)c(S(=O)(=O)N3CCOCC3)c2)CC1
    -13%, 8%, 1%, -6%, 9.6%, 4%, x, 4%
> Cc1ccc(NC(=O)C23CCC(C)(C(=O)[C@H]2Br)C3(C)C)cc1 (stereo partly specified)
    20%, 2%, x, x, x, x, -21%, 0%
> CCCOc1ccc(NC(=O)C(=O)NCCCN2CCOCC2)cc1
    x, x, -8%[46.1 µM], 1%, -2.8%, 20%[46.1 µM], 0%, x
> CSCCC(NS(=O)(=O)c1ccc2c(c1)oc(=O)n2C)C(=O)N1CCN(c2ccc(F)cc2)CC1 (stereo unspecified)
    x, x, x, 11%, 0.0%, 9%[46.1 µM], 0%, x
> CCOC(=O)N1CCC(NC(=O)c2cnn(-c3ccccc3)c2C2CCN(C(=O)OC(C)(C)C)CC2)CC1
    x, x, x, -16%, -0.4%, u, 3%, x
